Bm FixLJ act – activators of Burkholderia fixLJ two-component system, primary screen, B. multivorans, GFP reporter. B. multivorans fixK-promoter GFP reporter, 18 h; active compounds read high. z-score (test concentration not listed). 0.3% of 29,000 active;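 active means replicate mean overnight rise in green fluorescent reporter signal, 3 or more SD over negative controls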;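 further: score is relative to vehicle wells of the plate; 300 nL library stock went into each well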
* = called active by the depositor; & = joins results of further samples. Some of the compounds tested (hit frequency here may not be typical).

Screening CCn1c(=O)c(C(=O)Nc2ccc(C(C)=O)cc2)nc2ccccc21 returned Bm FixLJ act -1.3.
Screening Cc1cc(C)cc(NC(=O)CSc2nc3c(cnn3-c3ccc(F)cc3)c(=O)[nH]2)c1 returned Bm FixLJ act -0.46.
Cc1ccc(NC(=O)c2ccccc2Br)c(C(=O)c2ccccc2)c1 was read as Bm FixLJ act 0.54.
Screening CCOC(=O)c1cnc2ccc(C)cc2c1Nc1ccc(N(CC)CC)cc1 returned Bm FixLJ act -1.
`CCCCNS(=O)(=O)c1ccc(C)c(-c2nnc3c4ccccc4c(C)nn23)c1` gave Bm FixLJ act 0.24.
For COc1cccc2c1cc1c(=O)n(CC(=O)NCc3ccc(C)o3)nc(C)n12 the results were Bm FixLJ act -0.73.
CC(C)(C)C1CCc2c(sc(NC(=O)c3ccccc3F)c2C(=O)N2CCCCC2)C1 (stereo unspecified) was read as Bm FixLJ act -1.1.
Screening CC(C)(C)C(=O)Nc1ccnn1C1CCN(CC(N)=O)CC1 returned Bm FixLJ act -0.26.
Screening COc1ccc(CCNC(=O)c2ccc(Cn3c(SCc4ccccc4)nc4cccnc43)cc2)cc1 returned Bm FixLJ act -0.56.
For O=c1[nH]c2ccccc2n1CCCN1CCC(n2c(=O)[nH]c3cc(Cl)ccc32)CC1 the results were Bm FixLJ act -1.8&-1.7.
For COc1ccc(-c2nc3n(n2)C(=O)CC(c2ccc(Cl)cc2)S3)cc1 (stereo unspecified) the results were Bm FixLJ act -0.61.
For CCCNC(=O)c1cc2c(s1)CCOC21CCN(c2ncccc2C)CC1 the results were Bm FixLJ act -0.25.
For CCCc1ncc(C[n+]2ccccc2C)c(N)n1 the results were Bm FixLJ act -0.73.
For Cc1ccccc1Cn1cc(S(=O)(=O)c2ccc(F)cc2)c(=O)c2cc3c(cc21)OCO3 the results were Bm FixLJ act -1.6.
CCCCNC(=O)c1ccc2c(c1)N=C(CC)c1ccccc1S2 was read as Bm FixLJ act -1.7.
`Cc1cc(C(=O)N2CCCC3(CCC(=O)N(Cc4cccnc4)C3)C2)n(C)n1` (stereo unspecified) gave Bm FixLJ act -1.1.
Screening Cc1cc(CC(=O)NC2COCCC2Oc2cccc(F)c2)on1 (stereo unspecified) returned Bm FixLJ act -0.19.
For Cc1ccc(N(C)S(=O)(=O)c2c(-c3ccccc3)csc2C(=O)O)cc1 the results were Bm FixLJ act 0.09.
For Cc1ccc(NC(=O)Cn2c(=O)n(CCC(=O)NCc3ccccc3Cl)c(=O)c3ccccc32)cc1 the results were Bm FixLJ act 0.53.
`O=C1COc2ccc(-c3cc(-c4ccc(Cl)cc4)c4c(n3)-c3ccccc3OC4)cc2N1` gave Bm FixLJ act -0.83.
Screening CCc1c(C)nn(CC(=O)NCCC2CN(C)CCO2)c1C (stereo unspecified) returned Bm FixLJ act 0.79.
Cc1cc(C)cc(Nc2nc3ccccc3n3cnnc23)c1 was read as Bm FixLJ act -0.49.
Screening COc1ccc(C(=O)N2CC(O)C(Cc3cc(C)no3)C2)c(C)c1 (stereo unspecified) returned Bm FixLJ act -0.2.
`CC(CN1CCCCC1)C(=O)N1CCCN(C(=O)NC(C)(C)C)CC1` (stereo unspecified) gave Bm FixLJ act -0.24.
For CCn1c2ccccc2c2cc(CN3CCN(Cc4ccc(Cl)cc4)CC3)ccc21 the results were Bm FixLJ act -0.42.
`NC(=O)C1CCN(C(=O)C2CC(c3ccccc3)N3CCC[C@@H]23)CC1` (stereo partly specified) gave Bm FixLJ act -1.5.
Screening COC(=O)c1cc2sc(Cl)cc2n1CC(=O)Nc1cc(C)cc(C)c1 returned Bm FixLJ act -2.6.
For COc1cccc(NC(=O)c2oc3ccccc3c2NC(=O)COc2ccccc2C)c1 the results were Bm FixLJ act 2.2.
Screening Fc1ccc(F)c(Nc2c3c(nc4ccc(Cl)cc24)CCC3)c1 returned Bm FixLJ act -1.4.
For CCCN1C(C(=O)c2ccccc2)=C(OC(=O)C(C)(C)C)c2ccccc2S1(=O)=O the results were Bm FixLJ act 0.47.
`Cc1ccc2c(=O)cc(C(=O)Nc3ccc(S(=O)(=O)N4CCCCC4)cc3)oc2c1C` gave Bm FixLJ act 1.2.
`COc1ccc(OC)c(NC(=O)c2cc3c(n(-c4ccc(Cl)cc4)c2=O)CC(C)(C)CC3=O)c1` gave Bm FixLJ act -2.4.
For O=C(NC1CCN(C(=O)C2CC2)CC1)N1CCC(Oc2ccncc2)CC1 the results were Bm FixLJ act -1.2.
Cc1nn2c(=O)cc(COc3ccc(/C=C(\C#N)C(=O)Nc4ccccc4C)cc3)nc2s1 was read as Bm FixLJ act -0.45.
For CCCc1cc(C(=O)N2CCC(Cc3nn(C)c(=O)n3CC)CC2)ccn1 the results were Bm FixLJ act 1.5.
Screening CCCSc1ncc(Cl)c(C(=O)Nc2sc(C(C)=O)c(C)c2C(=O)OCC)n1 returned Bm FixLJ act 0.04.
`Cc1ccc2nc(CCN3CCN(C(=O)c4ccco4)CC3)[nH]c2c1` gave Bm FixLJ act -1.9.
Cc1ccsc1CN(C(=O)c1oc2ccccc2c1C)C1CCS(=O)(=O)C1 (stereo unspecified) was read as Bm FixLJ act -1.2.
Screening CC(O)C(=O)N1CCc2ccc(S(=O)(=O)Nc3cccnc3)cc2C1 (stereo unspecified) returned Bm FixLJ act -1.3.
Screening COc1ccccc1NC(=O)N1CCN(c2ccc3nnc(-c4ccc(F)cc4)n3n2)CC1 returned Bm FixLJ act -0.53.
For O=C(Nc1ccc(Cl)cc1F)c1oc(=O)c2ccccc2c1-c1ccccc1 the results were Bm FixLJ act -1.8.
Cc1ccc2nc(CCNC(=O)C3CC(=O)N(C4CCCC4)C3)[nH]c2c1 (stereo unspecified) was read as Bm FixLJ act 0.84.
Screening COc1ccc(NC(=O)Cn2cc(C(=O)C3CC3)c3ccccc32)cc1 returned Bm FixLJ act -0.08.
`CC(C)c1ccc(OCC(O)CN2CCN(c3ccc(F)cc3)CC2)cc1` (stereo unspecified) gave Bm FixLJ act -1.9.
COc1ccc2nc3sc(C(=O)Nc4cc(Cl)c(OC)cc4OC)cc3cc2c1 was read as Bm FixLJ act -1.3.
For Cc1ccc2c(c1)C(c1ccc(F)cc1)N(C(=O)c1cccc(C(F)(F)F)c1)CC(=O)N2 (stereo unspecified) the results were Bm FixLJ act 1.
`CCN(CCOc1cccc(C)c1)Cc1nc(COC)no1` gave Bm FixLJ act -0.28.
CCn1nc(CC(C)C)cc1C(=O)N1CCC(CCN2CCCC2=O)CC1 was read as Bm FixLJ act -2.
For CCOc1ccccc1C1Nc2ccccc2-c2nnc(SCc3ccccc3)nc2O1 (stereo unspecified) the results were Bm FixLJ act -2.
CCOc1ccc(NC(=O)Cn2c(CCC(=O)O)ccc2-c2ccc(Cl)cc2)cc1 was read as Bm FixLJ act -1.2.
`Cc1nn2c(C(F)(F)F)cc(-c3ccc(OC(C)C)cc3)nc2c1C#N` gave Bm FixLJ act -1.4.
O=C(O)P(=O)(O)O was read as Bm FixLJ act -0.91.
Screening CC(c1ccncn1)N(C)C(=O)NCCSc1nccn1C (stereo unspecified) returned Bm FixLJ act 0.26.
Screening CCOc1cc(C(=O)Nc2ccc3oc(-c4ccc(F)cc4Cl)nc3c2)cc(OCC)c1OCC returned Bm FixLJ act -1.1.
`CC(=O)c1ccc(N2CCN(CCCS(=O)(=O)N(C)C)CC2)cc1` gave Bm FixLJ act 0.15.
`CCCN(CCC)S(=O)(=O)c1ccc(C(=O)O)cc1` gave Bm FixLJ act -1.4.
For CCOC(=O)c1c(NC(=O)COc2ccc(Cl)cc2Cl)sc2c1CCCCC2 the results were Bm FixLJ act -1.5.
Screening CCCc1cnc(N2CCC(O)[C@@](CCC)(C(=O)O)C2)nc1 (stereo partly specified) returned Bm FixLJ act -0.26.
For CCn1c(=O)sc2cc(NS(=O)(=O)c3ccc(F)c(C)c3)ccc21 the results were Bm FixLJ act -1.2.
COc1cc(NC(=O)NCC2CCN(Cc3ccc(C)cc3)CC2)cc(OC)c1OC was read as Bm FixLJ act 0.53.
Screening Cc1ccc(F)c(CNC(=O)N2CCC(Oc3cccnc3)CC2)c1F returned Bm FixLJ act 0.51.
`CC(=O)N1CCc2cc(S(=O)(=O)NC(Cc3ccccc3)C(=O)Nc3ccc(Cl)cc3)ccc21` (stereo unspecified) gave Bm FixLJ act -0.85.
Screening CCCCCN1C(C(=O)c2ccccc2)=C(NC(C)=O)c2ccccc2S1(=O)=O returned Bm FixLJ act 0.2.
CC(=O)N1CCc2c(sc3c2c(=O)n(Cc2ccccc2)c(=O)n3Cc2ccc(C)cc2)C1 was read as Bm FixLJ act -0.73.
Screening O=C1CC(C(=O)N2CC(Oc3ccccc3F)C2)CN1Cc1cccnc1 (stereo unspecified) returned Bm FixLJ act -1.6.
`O=c1cc(-c2ccccc2)c2ccc3c(c2o1)CN(Cc1cccc(Cl)c1)CO3` gave Bm FixLJ act 2.5.
Screening CS(=O)(=O)c1ncc(Cl)c(C(=O)N2CCN(c3cccc(Cl)c3)CC2)n1 returned Bm FixLJ act 1.9.
Screening Cc1cccc(NCc2nc3ccccc3n2CCOc2ccccc2C)c1 returned Bm FixLJ act 2.6.
Screening CC(C)(C)c1ccc(S(=O)(=O)c2cn(CC(=O)Nc3ccccc3)c3ccccc3c2=O)cc1 returned Bm FixLJ act -0.53.
Screening Cc1oc2ccc(O)c(CN3CCCC(C)C3)c2c1C(=O)Nc1ccccc1 (stereo unspecified) returned Bm FixLJ act -0.05.
`COc1ccccc1CNC(=O)CCCn1c(=O)c2ccccc2n(CC(=O)Nc2c(C)cc(C)cc2C)c1=O` gave Bm FixLJ act -1.3.
`COc1ccc(CN2CCCC(c3ccn(CC(=O)O)n3)C2)cc1F` (stereo unspecified) gave Bm FixLJ act -0.02.
Screening Cc1cccn2c(F)c(C(=O)NC3CCN(C4CCOCC4)CC3)nc12 returned Bm FixLJ act 1.6.
Screening Cn1ccc(NC(=O)CN2CCC(Oc3ccccc3Cl)CC2)n1 returned Bm FixLJ act -0.96.
For CCc1nn(CC(=O)NCCc2ccc(OC)cc2OC)c(=O)c2cc3c(OC)cccc3n12 the results were Bm FixLJ act -1.9.
Screening CCC[C@@H]1C[C@@H](C(=O)N[C@@H]([C@H]2O[C@H](SC)[C@H](O)[C@@H](O)[C@H]2O)[C@@H](C)O)N(C)C1 returned Bm FixLJ act 0.48.
For CCOc1ccc(Nc2c3c(nc4nncn24)CCC3)cc1 the results were Bm FixLJ act -2.
Cc1nnc(-c2cccc(-c3cccc(C(=O)NC4CCOCC4)c3)c2)o1 was read as Bm FixLJ act 0.07.
`CCOc1ccc(-c2cc(NC(=O)c3c(F)cccc3F)c(C(=O)OC)s2)cc1` gave Bm FixLJ act -2.5.
Cc1ccc(-n2nc(C)c3c(C)c(CCC(=O)NC(C)c4ccccc4)c(C)nc32)cc1 (stereo unspecified) was read as Bm FixLJ act -1.
For O=C(CC1CC1)NC1COCC1Cc1ccnc2ccccc12 (stereo unspecified) the results were Bm FixLJ act -1.2.
Screening COc1ccc(Cn2c(SCc3ccc(C(=O)NCc4cccs4)cc3)nc3cccnc32)cc1 returned Bm FixLJ act -0.49.
For Cc1ccsc1CN(C(=O)c1ccc(Br)cc1)C1CCS(=O)(=O)C1 (stereo unspecified) the results were Bm FixLJ act 0.02.
Screening CCc1nnc2c(Nc3cc(OC)c(Cl)cc3OC)nc3ccccc3n12 returned Bm FixLJ act 0.06.
Screening CCCCN(CC)CCCNC(=O)c1nn(-c2ccc(OC)cc2)c(=O)c2c1c1ccccc1n2C returned Bm FixLJ act -0.74.
Screening Cc1n[nH]c(C)c1CCCNC(=O)COCC1CCCCO1 (stereo unspecified) returned Bm FixLJ act -2.3.
Screening CN(C)c1nccnc1-c1cccc(C(=O)N(Cc2ccccn2)C2CC2)c1 returned Bm FixLJ act -0.12.
Screening Cc1oc2ccc(O)c(CN3CCN(C)CC3)c2c1C(=O)Nc1cccc(Cl)c1C returned Bm FixLJ act -0.19.
`CCOc1cc(C#N)c(-n2nnc3c(sc4nc(C)cc(C)c43)c2=O)cc1OCC` gave Bm FixLJ act -0.63.
Cc1ccc2nc(Cl)c3cc(C(=O)NCCCN4CCC(C)CC4)sc3c2c1 was read as Bm FixLJ act -0.82.

Reprinted from the listing for reference:
`CCOc1ccc(-c2cc(NC(=O)c3c(F)cccc3F)c(C(=O)OC)s2)cc1` gave Bm FixLJ act -2.5.
Cc1ccc(-n2nc(C)c3c(C)c(CCC(=O)NC(C)c4ccccc4)c(C)nc32)cc1 (stereo unspecified) was read as Bm FixLJ act -1.
For O=C(CC1CC1)NC1COCC1Cc1ccnc2ccccc12 (stereo unspecified) the results were Bm FixLJ act -1.2.
Screening COc1ccc(Cn2c(SCc3ccc(C(=O)NCc4cccs4)cc3)nc3cccnc32)cc1 returned Bm FixLJ act -0.49.
For Cc1ccsc1CN(C(=O)c1ccc(Br)cc1)C1CCS(=O)(=O)C1 (stereo unspecified) the results were Bm FixLJ act 0.02.
Screening CCc1nnc2c(Nc3cc(OC)c(Cl)cc3OC)nc3ccccc3n12 returned Bm FixLJ act 0.06.
Screening CCCCN(CC)CCCNC(=O)c1nn(-c2ccc(OC)cc2)c(=O)c2c1c1ccccc1n2C returned Bm FixLJ act -0.74.
Screening Cc1n[nH]c(C)c1CCCNC(=O)COCC1CCCCO1 (stereo unspecified) returned Bm FixLJ act -2.3.
Screening CN(C)c1nccnc1-c1cccc(C(=O)N(Cc2ccccn2)C2CC2)c1 returned Bm FixLJ act -0.12.
Screening Cc1oc2ccc(O)c(CN3CCN(C)CC3)c2c1C(=O)Nc1cccc(Cl)c1C returned Bm FixLJ act -0.19.
`CCOc1cc(C#N)c(-n2nnc3c(sc4nc(C)cc(C)c43)c2=O)cc1OCC` gave Bm FixLJ act -0.63.
Cc1ccc2nc(Cl)c3cc(C(=O)NCCCN4CCC(C)CC4)sc3c2c1 was read as Bm FixLJ act -0.82.

(listing goes on)
Cc1nn(C)c(Cl)c1S(=O)(=O)NC(Cc1ccncc1)C1CC(O)C1 (stereo unspecified) was read as Bm FixLJ act -0.46.
`CCOc1ccc(CCNC(=O)c2cc3c(=O)n(CC)c4ccccc4c3s2)cc1OCC` gave Bm FixLJ act -0.77.
Screening COc1cc(NC(=O)Cn2cc(S(=O)(=O)N3CCC(C)CC3)c3ccccc3c2=O)cc(OC)c1OC returned Bm FixLJ act -0.16.
For COc1ccc(-c2nc3cc(NC(=O)Cc4ccc(Cl)cc4)ccc3o2)cc1OC the results were Bm FixLJ act -1.6.
